Compound activity: PubChem BioAssay, National Center for Advancing Translational Sciences (NCATS)
D2 PAM: human D2 receptor positive allosteric modulation; P14416; DiscoveRx D2 beta-arrestin cells, luminescence, 90 min; 100% = 57 uM dopamine signal; potentiation, % (concentration not given with the values); 360,000 compounds, 0.23% hits; active = potentiation of 50% or more; inconclusive = 30% to 50%; inactive = 30% or less;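 note: tested on top of an EC20 dose of dopamine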
Target sequence (P14416 whole entry, looked up): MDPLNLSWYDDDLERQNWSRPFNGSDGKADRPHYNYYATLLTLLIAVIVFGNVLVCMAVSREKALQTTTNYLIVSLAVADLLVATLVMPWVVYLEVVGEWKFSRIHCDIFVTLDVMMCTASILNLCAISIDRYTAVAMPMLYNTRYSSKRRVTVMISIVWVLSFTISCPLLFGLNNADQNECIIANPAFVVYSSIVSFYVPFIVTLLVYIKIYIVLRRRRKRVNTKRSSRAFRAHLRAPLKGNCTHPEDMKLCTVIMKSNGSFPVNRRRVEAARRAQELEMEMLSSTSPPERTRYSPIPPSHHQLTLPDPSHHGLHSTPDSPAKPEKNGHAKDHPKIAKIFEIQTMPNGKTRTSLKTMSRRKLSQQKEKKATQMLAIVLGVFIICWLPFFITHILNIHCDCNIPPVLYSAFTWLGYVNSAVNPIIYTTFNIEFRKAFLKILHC
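PathHunter D2 cells, attached overnight at 37 deg C, received compound in DMSO plus dopamine at EC20 (50 nM final) for 90 min at 37 deg C. Beta-arrestin recruitment was read as luminescence after 1 h with detection reagent at ambient temperature.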
ClpP mod: qHTS Assay for Activators of ClpP; Potency, µM (doses to about 57.5 µM), for the others: at the highest dose activity change, negative = active; AID 651965, 2013; purified B. subtilis ClpP, FRET peptide cleavage, 20 min; 340,000 compounds, 1.9% hits; ATP-dependent Clp protease proteolytic subunit (Bacillus subtilis (strain 168)), P80244; active = well fitted falling curve with a large enough effect; inconclusive = small, poorly fitted or top-dose-only effect; inactive = no such curve, though single readings can be large or run the other way; note: potency is the fitted concentration of half-maximal effect; the source files actives as falling curves though it sought activators and does not explain the sign; nearly all actives have a fitted effect of over 65% in size; many hits overshoot -100%
Target sequence (P80244 whole entry, looked up): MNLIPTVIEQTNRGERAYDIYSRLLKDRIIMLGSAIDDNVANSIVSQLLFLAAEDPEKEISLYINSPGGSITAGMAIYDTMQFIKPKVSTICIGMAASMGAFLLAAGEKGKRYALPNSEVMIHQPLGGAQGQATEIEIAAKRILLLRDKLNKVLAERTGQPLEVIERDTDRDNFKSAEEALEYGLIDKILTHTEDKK
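ClpP 10 microg/mL final, pH 8 Tris/KCl buffer with BSA, glycerol, Tween-20; compound pinned in; FRET-FV substrate; RT 20 min; Ex320/Em430; ΔFRET vs ADEP 5.8 microM, DMSO, no enzyme.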
gsp ag: gsp mutant agonism | gsp mutant cells, cAMP HTRF, 30 min; control for the full effect not named in the record | Potency, µM (titrated, usually from 76.9 µM), inactives show at the highest dose activation (cAMP increase), most hits filed as activators | 340,000 compounds, 0.13% hits | AID 624287; active = well fitted activation curve with a large enough effect; inconclusive = small, poorly fitted or top-dose-only effect, or another doubt; inactive = no such curve, though single readings can be large or run the other way; cell line not stated here;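 note: phosphodiesterase inhibitor Ro 20-1724 added with compounds to block cAMP breakdown; potency is the fitted concentration of half-maximal effect; nearly all actives have a fitted effect of over 60% in size; about a fifth of the inactives were tested at one dose only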
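Cells stably selected in G418 were plated at 2000/well, grown 16-24 hr, then given compounds in DMSO with the PDE inhibitor […] (300 uM solution added) for 30 min at 37C; cAMP was read by HTRF.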
gsp antagonist: antagonizes gsp, the McCune-Albright syndrome mutation. gsp-mutant cells, cAMP HTRF, 30 min; control for the full effect not named in the record. Potency, µM (highest dose often 76.9 µM), without a hit: top-dose activity change, negative = inhibition, most hits filed as inhibitors. 340,000 compounds, 0.4% hits. AID 624288; active = falling curve of any shape with a large fitted effect; inconclusive = falling curve, mostly with a smaller effect; inactive = flat or rising curve; cell line not stated here;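 note: intracellular cAMP measured with PDE inhibitor Ro 20-1724 present during compound exposure; potency is the fitted concentration of half-maximal effect; % is set by controls: 0 for no effect and ±100 for the full control effect; nearly all actives have a fitted effect of over 65% in size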
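HTRF cAMP read-out (cAMP-d2 plus anti-cAMP antibody-K in lysis buffer, 30 min RT). Before lysis, cells are exposed to compounds with […] for 30 min at 37C in DPBS containing Ca/Mg, BSA and Tween 20.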
Active calls of the source: *; u = inconclusive; x = not tested or not shown. Only part of the results is shown. The share of hits here may be higher or lower than overall.

Each structure is followed by: D2 PAM | ClpP mod | gsp ag | gsp antagonist
COc1ccc(OC(=O)N(C)C[C@H]2OCc3cnnn3CCCC(=O)N([C@H](C)CO)C[C@H]2C)cc1
→ x | 2.4% | -21% | x
CCCC[C@@H](C)C[C@@H](C)C(=O)N(C)[C@@H](CC(C)C)C(=O)N[C@H](C(=O)N(C)[C@H](C(=O)N1C[C@@H](O)C[C@H]1C(=O)N1C(=O)C=C[C@@H]1C)C(C)C)C(C)OC(C)=O (stereo not given in full)
→ x | 2.3% | x | 22%
N#CC1c2ccccc2-n2nncc2CN1C(=O)CCc1ccccc1 (stereo not given)
→ x | 0.5% | x | 5%
CCOC(=O)c1cc2c(cn1)[C@@H](CCO)NC2
→ x | -1.7% | x | 8%
Cc1ccccc1-c1ccc2n1Cc1cnnn1-c1ccccc1-2
→ x | 5.3% | x | -7%
CC1c2ccccc2-n2nncc2CN1C (stereo not given)
→ x | 0.9% | x | 16%
C#CCCC[C@@H]1OC(=O)CNC(=O)C([C@@H](C)CC)NC(=O)[C@@H]2CCCN2C(=O)C([C@@H](C)CC)OC(=O)[C@H](Cc2ccccc2)N(C)C(=O)[C@H](C(C)C)NC(=O)C1(C)C (stereo not given in full)
→ -11 | 0.4% | x | x
CC(C)(C)n1nnnc1C(c1cccc2ccccc12)N1CCC2(CC1)C(=O)NCN2c1ccccc1 (stereo not given)
→ -3 | -1.6% | x | x
COc1cccc(C(c2nnnn2Cc2ccccc2)N2CCC3(CC2)C(=O)NCN3c2ccccc2)c1OC (stereo not given)
→ 7 | 0.0% | x | x
O=c1[nH]c2ccccc2n1C1CCN(C(c2cccc3ccccc23)c2nnnn2Cc2ccccc2)CC1 (stereo not given)
→ u | -2.2% | x | x
COc1ccc(C(c2nnnn2-c2c(C)cccc2C)N2CCC(n3c(=O)[nH]c4ccccc43)CC2)cc1 (stereo not given)
→ -3 | -3.2% | x | x
CCOC(=O)CNC(=O)N1Cc2cc(N3CCCCC3)ccc2-n2nncc2C1
→ -2 | -2.3% | x | x
CSCCC(c1nnnn1Cc1ccccc1)N1CCC(n2c(=O)[nH]c3ccccc32)CC1 (stereo not given)
→ u | 1.5% | x | x
COc1cc(O)c2c(c1)/C=C/C[C@H](O)[C@H](O)C(=O)CCC[C@H](C)OC2=O
→ 11 | -1.6% | x | x
S=C(NCCc1ccccc1)N1Cc2cc(Br)ccc2-n2nncc2C1
→ 2 | 1.1% | x | x
O=C1NCN(c2ccccc2)C12CCN(C(c1ccccc1OC(F)(F)F)c1nnnn1-c1ccc3c(c1)OCCO3)CC2 (stereo not given)
→ -2 | -4.2% | x | x
O=C(NC1CCCCC1)N1Cc2cc(-c3cccc(F)c3)ccc2-n2nncc2C1
→ -3 | u | x | x
O=c1[nH]c2ccccc2n1C1CCN(C(c2cccs2)c2nnnn2-c2ccc3c(c2)OCCO3)CC1 (stereo not given)
→ x | 0.2% | x | x
COc1cccc(C(c2nnnn2-c2ccc3c(c2)OCCO3)N2CCC(n3c(=O)[nH]c4ccccc43)CC2)c1OC (stereo not given)
→ u | 2.6% | x | x
O=c1[nH]c2ccccc2n1C1CCN(C(c2cc3ccccc3o2)c2nnnn2-c2ccc3c(c2)OCCO3)CC1 (stereo not given)
→ x | 0.1% | x | x
CCCCn1nnnc1C(C1CC1)N1CCC2(CC1)C(=O)NCN2c1ccccc1 (stereo not given)
→ -10 | -1.0% | x | x
CCC(c1nnnn1Cc1ccccc1)N1CCC2(CC1)C(=O)NCN2c1ccccc1 (stereo not given)
→ -5 | 2.9% | x | x
N#CC12CC(=O)N1Cc1cnnn1-c1ccccc12 (stereo not given)
→ -5 | -2.1% | x | x
CCCCn1nnnc1C(CCSC)N1CCC2(CC1)C(=O)NCN2c1ccccc1 (stereo not given)
→ -5 | 1.3% | x | x
O=c1[nH]c2ccccc2n1C1CCN(C(c2nnnn2C2CCCCC2)C2CC2)CC1 (stereo not given)
→ -1 | -1.3% | x | x
Cc1cccc(C)c1-n1nnnc1C(c1cccs1)N1CCC2(CC1)C(=O)NCN2c1ccccc1 (stereo not given)
→ 2 | 0.2% | x | x
CC(C)(C)n1nnnc1C(C1CC1)N1CCC(n2c(=O)[nH]c3ccccc32)CC1 (stereo not given)
→ -4 | 1.1% | x | x
COc1ccc(-n2nnnc2C(c2cc3ccccc3o2)N2CCC(n3c(=O)[nH]c4ccccc43)CC2)cc1 (stereo not given)
→ 4 | -3.7% | x | x
O=C1NCN(c2ccccc2)C12CCN(C(c1cccc3ccccc13)c1nnnn1C1CCCC1)CC2 (stereo not given)
→ -14 | -13% | x | x
Cc1ccc(S(=O)(=O)N2Cc3cc(-c4ccccc4)ccc3-n3nncc3C2)cc1
→ 3 | -3.6% | x | x

Rewritten comma-delimited: part of the list above
compound,D2 PAM,ClpP mod,gsp ag,gsp antagonist
O=C1NCN(c2ccccc2)C12CCN(C(c1ccccc1OC(F)(F)F)c1nnnn1-c1ccc3c(c1)OCCO3)CC2 (stereo not given),-2,-4.2%,x,x
CC1c2ccccc2-n2nncc2CN1C (stereo not given),x,0.9%,x,16%
Cc1ccccc1-c1ccc2n1Cc1cnnn1-c1ccccc1-2,x,5.3%,x,-7%

Later entries:
Letter code – A = D2 PAM; B = ClpP mod; C = gsp ag; D = gsp antagonist
compound: CN1CCCCC1Cc1ccccc1 (stereo not given)
  A = -2	B = -0.6%	C = x	D = x
compound: CSCCC(c1nnnn1C(C)(C)C)N1CCC2(CC1)C(=O)NCN2c1ccccc1 (stereo not given)
  A = 2	B = -0.6%	C = x	D = x
compound: CCCCn1nnnc1C(C1CC1)N1CCC(n2c(=O)[nH]c3ccccc32)CC1 (stereo not given)
  A = 2	B = -4.6%	C = x	D = x
compound: CCCCn1nnnc1C(CCSC)N1CCC(n2c(=O)[nH]c3ccccc32)CC1 (stereo not given)
  A = 22	B = -1.2%	C = x	D = x
compound: COc1ccc(C(c2nnnn2-c2ccc3c(c2)OCCO3)N2CCC(n3c(=O)[nH]c4ccccc43)CC2)cc1 (stereo not given)
  A = 14	B = 1.1%	C = x	D = x
compound: O=C1NCN(c2ccccc2)C12CCN(C(c1cccs1)c1nnnn1-c1ccc3c(c1)OCCO3)CC2 (stereo not given)
  A = -1	B = -0.9%	C = x	D = x
compound: CCC(c1nnnn1-c1ccc(OC)cc1)N1CCC2(CC1)C(=O)NCN2c1ccccc1 (stereo not given)
  A = -12	B = -0.3%	C = x	D = x
compound: Cc1ccc(-n2c(=O)[nH]c3ccccc3c2=O)cc1[N+](=O)[O-]
  A = -24	B = -4.6%	C = x	D = x
compound: O=c1[nH]c2ccccc2n1C1CCN(C(c2ccccc2)c2nnnn2-c2ccc3c(c2)OCCO3)CC1 (stereo not given)
  A = u	B = -2.2%	C = x	D = x
compound: CC1=C(C)CN2CC(C#N)=C(N)C2C1 (stereo not given)
  A = 3	B = -5.1%	C = x	D = x

(continued)
Letter code – A = D2 PAM; B = ClpP mod; C = gsp ag; D = gsp antagonist
compound: O=C1NCN(c2ccccc2)C12CCN(C(CCc1ccccc1)c1nnnn1Cc1ccccc1)CC2 (stereo not given)
  A = -6	B = 0.2%	C = x	D = x
compound: CCOC(=O)CNC(=O)N1Cc2cc(-c3ccc(OC)cc3)ccc2-n2nncc2C1
  A = 5	B = 4.8%	C = x	D = x
compound: CCCCn1nnnc1C(c1ccnc2ccccc12)N1CCC2(CC1)C(=O)NCN2c1ccccc1 (stereo not given)
  A = -2	B = -4.4%	C = x	D = x
compound: COc1ccc(C(c2nnnn2Cc2ccccc2)N2CCC3(CC2)C(=O)NCN3c2ccccc2)cc1 (stereo not given)
  A = x	B = -1.1%	C = x	D = x
compound: O=c1[nH]c2ccccc2n1C1CCN(C(c2cccc3ccccc23)c2nnnn2-c2ccc3c(c2)OCCO3)CC1 (stereo not given)
  A = x	B = -3.1%	C = x	D = x
compound: CC(C)(C)n1nnnc1C(C1CC1)N1CCC2(CC1)C(=O)NCN2c1ccccc1 (stereo not given)
  A = -13	B = -1.6%	C = x	D = x
compound: O=C1C=C2c3ccccc3CC(C(=O)O)C2CC1 (stereo not given)
  A = -3	B = -1.9%	C = x	D = x
compound: O=C1NCN(c2ccccc2)C12CCN(C(c1ccnc3ccccc13)c1nnnn1Cc1ccccc1)CC2 (stereo not given)
  A = -3	B = -4.6%	C = x	D = x
compound: Cc1ccc(S(=O)(=O)N2Cc3cc(N4CCOCC4)ccc3-n3nncc3C2)cc1
  A = -4	B = -8.4%	C = x	D = x
compound: COc1ccc(-c2ccc3c(c2)CN(c2cccc(Cl)c2)Cc2cnnn2-3)cc1
  A = -2	B = 5.5%	C = x	D = x

As a short view, part of the list above:
Letter code – A = D2 PAM; B = ClpP mod; C = gsp ag; D = gsp antagonist
compound: Cc1ccc(-n2c(=O)[nH]c3ccccc3c2=O)cc1[N+](=O)[O-]
  A = -24	B = -4.6%	C = x	D = x
compound: O=c1[nH]c2ccccc2n1C1CCN(C(c2ccccc2)c2nnnn2-c2ccc3c(c2)OCCO3)CC1 (stereo not given)
  A = u	B = -2.2%	C = x	D = x
compound: CC1=C(C)CN2CC(C#N)=C(N)C2C1 (stereo not given)
  A = 3	B = -5.1%	C = x	D = x
compound: O=C1NCN(c2ccccc2)C12CCN(C(CCc1ccccc1)c1nnnn1Cc1ccccc1)CC2 (stereo not given)
  A = -6	B = 0.2%	C = x	D = x
compound: CCOC(=O)CNC(=O)N1Cc2cc(-c3ccc(OC)cc3)ccc2-n2nncc2C1
  A = 5	B = 4.8%	C = x	D = x
compound: CCCCn1nnnc1C(c1ccnc2ccccc12)N1CCC2(CC1)C(=O)NCN2c1ccccc1 (stereo not given)
  A = -2	B = -4.4%	C = x	D = x
compound: COc1ccc(C(c2nnnn2Cc2ccccc2)N2CCC3(CC2)C(=O)NCN3c2ccccc2)cc1 (stereo not given)
  A = x	B = -1.1%	C = x	D = x
compound: O=c1[nH]c2ccccc2n1C1CCN(C(c2cccc3ccccc23)c2nnnn2-c2ccc3c(c2)OCCO3)CC1 (stereo not given)
  A = x	B = -3.1%	C = x	D = x
compound: CC(C)(C)n1nnnc1C(C1CC1)N1CCC2(CC1)C(=O)NCN2c1ccccc1 (stereo not given)
  A = -13	B = -1.6%	C = x	D = x
compound: O=C1C=C2c3ccccc3CC(C(=O)O)C2CC1 (stereo not given)
  A = -3	B = -1.9%	C = x	D = x
compound: O=C1NCN(c2ccccc2)C12CCN(C(c1ccnc3ccccc13)c1nnnn1Cc1ccccc1)CC2 (stereo not given)
  A = -3	B = -4.6%	C = x	D = x
compound: Cc1ccc(S(=O)(=O)N2Cc3cc(N4CCOCC4)ccc3-n3nncc3C2)cc1
  A = -4	B = -8.4%	C = x	D = x
compound: COc1ccc(-c2ccc3c(c2)CN(c2cccc(Cl)c2)Cc2cnnn2-3)cc1
  A = -2	B = 5.5%	C = x	D = x
